Source: PubChem (National Center for Advancing Translational Sciences (NCATS))
GLA inh pH 4.5: qHTS Assay for Inhibitors of Human alpha-Galactosidase at pH 4.5; Alpha-galactosidase A (Homo sapiens), P06280; purified enzyme, 4-MU-alpha-Gal fluorescence, pH 4.5; activity change, negative = inhibition, % at 105 µM; 230,000 tested, under 10 active; AID 1467, 2008; inconclusive = small, poorly fitted or top-dose-only inhibition, or a rising curve; inactive = flat fitted curve, though single readings scatter; no compound was filed as active;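 further: 0% = full activity with enzyme and -100% = basal without enzyme; dose as in the result columns while the protocol names 77 µM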
Rango-impB inh: qHTS Assay for Inhibitors of Rango (Ran-regulated importin-beta cargo) - Importin beta complex formation; Importin subunit beta-1 (Homo sapiens), Q14974; Rango CFP/YFP FRET sensor + importin beta, 45 min; Potency, µM (series often up to 92.2 µM), for inactives: top-dose inhibition of complex formation; hit rate 0.031% among 340,000; active = rising FRET ratio curve, often small or poorly fitted; inconclusive = mostly compound fluorescence or quenching in the first reads; inactive = flat curves in all reads;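 further: potency means the concentration at half of the fitted maximal effect; 0% = DMSO wells and 100% = buffer wells lacking importin beta; nearly all actives have a fitted effect of over 15% in size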
Target sequence (Q14974 whole entry, looked up): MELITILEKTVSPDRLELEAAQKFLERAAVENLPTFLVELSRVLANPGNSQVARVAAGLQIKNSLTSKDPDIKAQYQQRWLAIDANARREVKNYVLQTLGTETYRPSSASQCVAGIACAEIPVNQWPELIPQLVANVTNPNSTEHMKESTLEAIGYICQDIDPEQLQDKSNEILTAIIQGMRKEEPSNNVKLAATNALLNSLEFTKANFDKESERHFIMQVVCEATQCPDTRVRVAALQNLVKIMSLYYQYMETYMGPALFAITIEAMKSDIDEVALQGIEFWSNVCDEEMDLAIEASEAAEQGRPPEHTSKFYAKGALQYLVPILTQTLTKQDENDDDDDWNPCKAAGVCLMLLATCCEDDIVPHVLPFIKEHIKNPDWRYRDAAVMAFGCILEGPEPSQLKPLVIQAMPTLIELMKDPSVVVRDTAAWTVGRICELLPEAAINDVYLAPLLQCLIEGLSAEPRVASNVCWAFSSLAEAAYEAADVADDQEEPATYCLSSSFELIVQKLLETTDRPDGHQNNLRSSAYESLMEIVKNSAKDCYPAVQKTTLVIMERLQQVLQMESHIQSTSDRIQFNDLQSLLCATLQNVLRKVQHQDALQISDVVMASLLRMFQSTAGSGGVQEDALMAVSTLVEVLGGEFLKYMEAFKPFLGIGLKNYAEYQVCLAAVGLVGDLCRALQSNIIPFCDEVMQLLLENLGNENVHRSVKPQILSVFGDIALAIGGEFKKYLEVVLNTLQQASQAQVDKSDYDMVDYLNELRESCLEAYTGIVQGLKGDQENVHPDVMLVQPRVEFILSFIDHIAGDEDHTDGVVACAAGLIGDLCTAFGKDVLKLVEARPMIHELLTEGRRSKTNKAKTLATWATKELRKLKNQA
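FRET biosensor (snurportin 1 IBB flanked by EYFP and cerulean), 50 nM, with compound 5 min, then 0.125 microM importin beta in PBS, 1 mM DTT, 0.02% Tween-20, 0.1% BSA. CFP/YFP ratio read after 45 min at room temperature; pre-read flags interference.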
Rango dissoc inh: qHTS Assay for Inhibitors of RanGTP induced Rango (Ran-regulated importin-beta cargo) - Importin beta complex dissociation; Snurportin-1 (Homo sapiens) + GTP-binding nuclear protein Ran (Homo sapiens) + Importin …; Biochemical FRET Rango-importin beta, RanGTP-induced dissociation; Potency, µM (doses to about 46.1 µM), for inactives: top-dose activity change, negative = inhibition; hit rate 0.071% among 340,000; active means falling FRET ratio curve, often poorly fitted, with flat reads before Ran was added; inconclusive means other falling curves, or compound fluorescence or quenching; inactive means flat or rising ratio curve;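 further: potency means the concentration at half of the fitted maximal effect; % of control where 0% means no effect; nearly all actives have a fitted effect of over 45% in size; -100% = wells without RanGTP and RCC1; the record marks most hits as doubtful in a second field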
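Recombinant Rango FRET biosensor (EYFP–snurportin 1 IBB–cerulean CFP10) at 0.1 uM premixed with 0.25 uM importin beta in PBS, 1 mM DTT, 0.02% Tween-20, 0.1% BSA. Compound added 5 min; RanGTP-RCC1 (0.6 uM Ran, 2 mM GTP, 0.2 uM RCC1) then triggers release, read at 45 min.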
miR-21 FLuc: qHTS Assay for Modulators of miRNAs and/orActivators of miR-21; Potency, µM (doses to about 38.3 µM), for inactives: at the highest dose reporter change, positive = more light; 340,000 tested, under 10 active; HeLa miR-21 FLuc reporter, luciferase, 48 h; active = well fitted rising curve with a large enough effect; inconclusive = small, poorly fitted or top-dose-only effect; inactive = no such curve, though single readings can be large or run the other way;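 further: % of control where 0% means no effect; miR-21 action dims this reporter so a rising signal means less miR-21 action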
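HeLa miR-21-FLuc reporter line, endogenous miR-21; 2000 cells/well in DMEM/10% FBS; compound titration up to ~40uM final, 48 h, 37 degree Celsius; luciferase detection reagent, 15 min lysis, CCD luminescence.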
* = called active by the depositor; ? = inconclusive; nt = not tested or not shown; & = joins results of further samples. These rows are one share of the data; count on the stated rates, not on these rows.

SMILES	GLA inh pH 4.5	Rango-impB inh	Rango dissoc inh	miR-21 FLuc
Cc1cnc(C(=O)Nc2ccc(C)c(S(=O)(=O)N(C)C)c2)cn1	0	-3.9%	?	-9%
Cc1cc(NC(=O)NC(=O)c2ccccc2NC(=O)CN)ccc1Oc1ncc(Br)cn1	nt	0.2%	5%	nt
CCN(CC)CCNC(=O)c1cc(S(C)(=O)=O)ccc1OC	0&3&8	-6.6%	1%	1%
Cc1ccc(C2=NCCn3c2c2ccc(C(F)(F)F)cc2[n+]3[O-])cc1	nt	0.7%	0%	nt
Cc1ccc(-c2nnn(CC(=O)N(Cc3cccs3)C(C(=O)NCC3CCCO3)c3ccco3)n2)o1 (centres undefined)	9	-0.5%	4%	4%
COc1ccc(Nc2oc(-c3ccccc3Cl)nc2C#N)cc1	21	0.4%	4%	-9%
O=C1c2ccccc2NC(c2ccc(-c3cccc(F)c3)o2)N1O (centres undefined)	nt	2.8%	-13%	nt
O=C1CSC(=S)N1/N=C/c1ccc(C(F)(F)F)cc1	nt	4.2%	-9%	-8%
COc1ccccc1NC(=O)c1ccc(Br)c(S(=O)(=O)N2CCCC2)c1	nt	-1.3%	12%	7%
COc1ccc(N=Cc2sc(O)c3ccccc23)cc1	-12	?	?	-35%
CN(C)c1ccc(CN2CCCCC2)cc1	4	-1.3%	-12%	-3%
CCOC(=O)c1c(NC(=O)COC(=O)/C=C/c2ccccc2)sc(C(=O)NC)c1C	nt	0.4%	22%	nt
Cc1ccc(S(=O)(=O)N(C)C)cc1NC(=O)C1CCN(C(=O)Nc2ccccc2)CC1	nt	2.8%	1%	nt
CC(C)NC(=O)NC(=O)COC(=O)c1ccc(OC(F)(F)F)cc1	-1	-0.9%	11%	-4%
CCN(Cc1ccccc1)C(=O)C1CCN(S(=O)(=O)c2ccc3c(c2)OCCO3)CC1	nt	4.3%	0%	-11%
CN(CC(=O)NCCc1ccccc1)Cc1ccco1	nt	-2.2%	-2%	-67%
Cc1ccc(NC(=O)COC(=O)[C@H](C)NC(N)=O)c(C)c1	0	-1.3%	-10%	3%
COc1ccc(CN2C(=O)C(Cc3ccccc3)Nc3ncnc(N4CCCCC4)c32)cc1 (centres undefined)	nt	?	-8%	nt
Cc1ccc(S(=O)(=O)N2CCC(C(=O)N[C@H](C(=O)NCC3CCCO3)C(C)C)CC2)cc1 (some centres undefined)	-3	-2.9%	3%	0%
COc1ccc([C@H]2CC(=O)C=C(c3ccc(C)cc3)C2)cc1	nt	1.9%	3%	nt
O=C(O)c1cccc(NS(=O)(=O)c2ccc3c4c(cccc24)C(=O)N3)c1	nt	2.0%	15%	2%
COc1ccc(NC(=O)Cn2nnc(-c3ccc(CN4CCOCC4)cc3)n2)c(OC)c1	2	-0.7%	7%	-3%
CC(=O)c1ccccc1NS(=O)(=O)c1cccc2nsnc12	nt	2.0%	10%	-2%
Cc1ccc(NC(=O)CSCC(=O)Nc2cc(C(F)(F)F)ccc2N2CCOCC2)cc1	nt	0.1%	-3%	nt
Cc1cc(N2CC(C(=O)Nc3nccs3)CC2=O)ccc1C(C)C (centres undefined)	nt	1.8%	1%	-20%
Cc1cc(C)c2cc(CN(CC3CCCO3)C(=S)NCc3ccco3)c(=O)[nH]c2c1 (centres undefined)	6	?	-11%	1%
CC(C)C(O)(C(=O)NNc1ccccc1)C(C)C	2	4.8%	2%	1%
O=C1C2C(C(=O)N1/N=C/c1cc([N+](=O)[O-])ccc1O)C1C=CC2C12CC2 (centres undefined)	-2	-3.9%	-14%	0%
Cc1ccc(CNc2nc(N)c([N+](=O)[O-])c(NCCO)n2)cc1	-7	7.8%	9%	-3%
Cc1oc2ccc(O)cc2c1C(=O)c1ccc(F)cc1	nt	-0.3%	7%	nt
CCCn1c(N)c(N(CCOC)C(=O)/C=C/c2ccc(C(=O)OC)cc2)c(=O)[nH]c1=O	-2	-0.3%	-18%	4%
Cc1ccccc1C(=O)Nc1ccccc1C(=O)NC1CC1	nt	-0.5%	13%	2%
COC(=O)CNC(c1ccccc1Cl)c1cc(Br)ccc1NC(=O)CCN1CCOCC1 (centres undefined)	1	-0.4%	1%	1%
CCCCNC(=O)COCc1cc(-c2ccc3c(c2)OCO3)on1	nt	3.1%	-3%	-25%
CCN(CCn1cccn1)Cc1nc(Cc2cccc(F)c2)no1	2	7.6%	1%	4%
COC(=O)c1ccc(C(=O)N2CCCC(N3CCN(c4ccc(F)cc4)CC3)C2)nc1 (centres undefined)	nt	2.0%	1%	-4%
Cc1ccc(CO/N=C\Cc2snc(Sc3ncc(C(F)(F)F)cc3Cl)c2C#N)cc1	-8	?	-18%	-1%
Cc1ccccc1-c1cc(C(=O)NCc2ccc3c(c2)OCO3)nn1CC1CC(c2cccc([N+](=O)[O-])c2)=NO1 (centres undefined)	nt	-0.6%	-19%	nt
O=c1[nH]n(-c2cccc3cccnc23)c(=O)c2ccccc12	-17	0.1%	-2%	-1%
O=C(c1ccc2c(c1)OCO2)C1CCCN(Cc2cn[nH]c2-c2ccccc2)C1 (centres undefined)	2	3.1%	-5%	-2%
Cc1nc2c(C(=O)NCc3ccc(F)cc3)c[nH]n2c(=O)c1Cl	-7	1.0%	-11%	-3%
COc1ccc(CC(=O)OCC(=O)Nc2ccc(Br)cc2)cc1	1	-5.7%	6%	3%
CCOC(=O)Cc1csc(N/C(=N/S(=O)(=O)c2ccc(Cl)cc2)c2ccccc2)n1	5	-0.1%	-3%	1%
COc1ccccc1N(CC(=O)NCc1ccccc1)C(=O)CCC(=O)Nc1ccccn1	1	-4.3%	4%	-3%
CC1(C)CC(=O)C(C=Nc2ccc(Cl)cn2)=C(O)C1	nt	2.4%	-11%	0%

Ordered by SMILES length (high to low): five of the compounds above
SMILES	GLA inh pH 4.5	Rango-impB inh	Rango dissoc inh	miR-21 FLuc
CCCn1c(N)c(N(CCOC)C(=O)/C=C/c2ccc(C(=O)OC)cc2)c(=O)[nH]c1=O	-2	-0.3%	-18%	4%
COC(=O)CNC(c1ccccc1Cl)c1cc(Br)ccc1NC(=O)CCN1CCOCC1 (centres undefined)	1	-0.4%	1%	1%
CC1(C)CC(=O)C(C=Nc2ccc(Cl)cn2)=C(O)C1	nt	2.4%	-11%	0%
CCN(CCn1cccn1)Cc1nc(Cc2cccc(F)c2)no1	2	7.6%	1%	4%
Cc1ccccc1C(=O)Nc1ccccc1C(=O)NC1CC1	nt	-0.5%	13%	2%

Following part.
SMILES	GLA inh pH 4.5	Rango-impB inh	Rango dissoc inh	miR-21 FLuc
COCCn1cnc2c1c(=O)n(CC(=O)OCC(=O)NCCCc1ccccc1)c(=O)n2Cc1ccccc1	1	-2.8%	9%	-1%
COc1ccc(-c2[nH]ncc2CN(CCO)Cc2cccs2)c(F)c1	nt	-0.3%	8%	1%
O=C(Nc1ncn[nH]1)c1cccc(F)c1	nt	-3.1%	1%	nt
CC1(C)Cc2c(C#N)c(OCC(=O)c3ccccc3)nc(-c3ccoc3)c2CO1	5	0.6%	4%	-7%
O=C(CSc1nc2[nH]ncc2c(=O)[nH]1)NCc1ccccc1Cl	8	-0.8%	-12%	-1%
CC(=O)Nc1ccc(/C=N/NC(=O)CNC(=O)c2ccccc2)cc1	1	0.2%	1%	-2%
Cc1ccc(NCc2nnc(SCC(=O)Nc3nnc(C)s3)n2C)cc1	-2	3.1%	1%	-1%
O=S(=O)(Nc1ccccc1F)c1ccc(Cl)nc1	nt	-2.6%	-4%	nt
Cc1[nH]n(CCC#N)c(=O)c1CC(=O)N1CCN(c2ccccc2)CC1	4	0.0%	2%	0%
COc1ccc(N2CCN(S(=O)(=O)CCNC(=O)c3cccs3)CC2)cc1	nt	0.4%	-20%	nt
CCOC(=O)/C=c1\s/c(=C\c2ccc(C(=O)OC)cc2)c(=O)n1CC(=O)Nc1ccccc1	5	3.8%	5%	0%
Cc1ccc(-c2csc(NC(=O)CSc3nc4ccccc4c(=O)n3CCCN(C)C)n2)cc1	?	-0.3%	1%	-20%
Cc1ccc(CN2CCC(CNC(=O)C3CCCN(c4ncnc5c4nc4n5CCCCC4)C3)CC2)cc1 (centres undefined)	nt	0.0%	-6%	4%
CCn1c2c(c(=N)c3c1CCC3)CCC2	2	1.8%	12%	4%
Cc1ccc(C)c(OCCCC(C)(C)C(=O)O)c1	-3&11	?	-22%	-9%
COc1ccc(/C=C(/NC(=O)c2ccc([N+](=O)[O-])cc2)C(=O)NC(C)(C)C)cc1	-1	5.1%	-7%	3%
O=C(NC(Nc1ncccn1)C(=O)c1ccccc1)c1ccccc1 (centres undefined)	5	2.0%	2%	0%
Cc1csc(NC(=O)CSc2nncs2)n1	nt	0.8%	15%	nt
Cn1c(C(=O)N2CCc3ccccc3C2)cc2oc3ccccc3c21	-2	?	12%	-86%
CCN(CC(=O)NCCc1ccccc1)S(=O)(=O)c1ccccc1	-3	3.9%	0%	6%
CCOC(=O)c1nn(-c2ccccc2)c(=O)c(C#N)c1C	-2	2.5%	3%	1%
Cc1ccc(NC(=O)COC(=O)c2ccc3c(c2)C(=O)N(CCc2ccccc2)C3=O)c(C)c1	6	5.3%	4%	2%
Cc1ccc(NC(=O)CN(C)C(=O)c2cccnc2Nc2cccc(C(F)(F)F)c2)cc1	nt	2.2%	2%	17%
COc1ccc(C(=O)NC2=NCCS2)c(OC)c1	nt	5.5%	11%	-24%
Cc1ccc(C)c(C(=O)CN2C(=O)NC3(CCCCCC3)C2=O)c1	nt	-2.4%	-3%	nt
O=C(NCCc1csc(-c2cccnc2)n1)c1cccs1	3	0.7%	24%	-8%
C#CCOCCOCCOCCNc1nc(N2CCOCC2)nc(N2CCN(C(=O)[C@H]([C@@H](C)CC)n3cc([C@@H](N)CO)nn3)CC2)n1	6	-0.1%	-5%	-2%
C/C(CC(=O)NCc1ccc(Cl)cc1)=N\NC(=O)COc1ccc(C)cc1Br	nt	1.1%	-2%	16%
COc1cccc(C(=O)O/N=C(\N)c2ccncc2)c1OC	-1	0.2%	24%	-57%
COC(OC)C12c3ccccc3C(c3ccccc31)C1C(=O)N(c3cccnc3)C(=O)C12 (centres undefined)	5	-1.3%	0%	1%
CCC(=O)Nc1ccc(C(=O)CSc2nnc(-c3cccnc3)o2)cc1	11	2.1%	3%	-5%
Cc1cccc(NC(=O)C(C)Oc2ccc(C)nc2[N+](=O)[O-])c1 (centres undefined)	nt	-3.2%	?	nt
CCOC(=O)c1c(-c2ccc3ccccc3c2)csc1NC(=O)CCCC(=O)O	nt	-0.1%	-4%	nt
COc1ccc(C(=O)NC(=S)Nc2cccc3ncccc23)cc1[N+](=O)[O-]	nt	0.8%	?	0%
COc1cccc(NC(=O)CN(C)C(=O)c2cccc(S(=O)(=O)N3CCN(c4ccccc4)CC3)c2)c1	nt	-5.1%	-1%	18%
CCc1noc(C)c1C(=O)Nc1nc(-c2ccc(Cl)cc2Cl)c(C)s1	0	-0.4%	-1%	-2%
Fc1ccc(COc2ccc(-c3nnco3)cc2)cc1	0	0.5%	0%	-58%
CCc1n[nH]c(=S)n1/N=C/c1ccc2c(c1)OCO2	-8	0.5%	-6%	-11%
C/C(=C/C(=O)O)C(=O)Nc1cccc(C(F)(F)F)c1	16	-0.3%	-5%	2%
O=C(Nc1ccc(Oc2ccccc2)nc1)C1CCCCN1Cc1ccco1 (centres undefined)	nt	3.4%	-10%	17%
CN(C)S(=O)(=O)c1ccc(N2CCCC2)c(C(=O)NNC(=O)c2ccccc2)c1	nt	1.9%	-7%	nt
Cc1ccc(S(=O)(=O)N[C@@H](Cc2ccccc2)C(=O)CCl)cc1	-3&7	0.1%	3%	?
COc1ccc(Cn2nnc(C(=O)Nc3ccc(F)cc3)c2N)cc1	1	-0.3%	2%	-7%
